# From PubChem
# VDR inh: blocks the human vitamin D receptor; P11473; VDR-SRC2-3 peptide fluorescence polarization, 2 h; Potency, µM, for the others: max response, negative = inhibition, hits mostly inhibitors; hit rate 0.93% among 400,000; active = well fitted inhibition curve with a large enough effect; inconclusive = small, poorly fitted or top-dose-only effect, or another doubt; inactive = no such curve, though single readings can be large or run the other way; note: series mostly up to about 120 µM
# Target sequence (P11473 whole entry, looked up): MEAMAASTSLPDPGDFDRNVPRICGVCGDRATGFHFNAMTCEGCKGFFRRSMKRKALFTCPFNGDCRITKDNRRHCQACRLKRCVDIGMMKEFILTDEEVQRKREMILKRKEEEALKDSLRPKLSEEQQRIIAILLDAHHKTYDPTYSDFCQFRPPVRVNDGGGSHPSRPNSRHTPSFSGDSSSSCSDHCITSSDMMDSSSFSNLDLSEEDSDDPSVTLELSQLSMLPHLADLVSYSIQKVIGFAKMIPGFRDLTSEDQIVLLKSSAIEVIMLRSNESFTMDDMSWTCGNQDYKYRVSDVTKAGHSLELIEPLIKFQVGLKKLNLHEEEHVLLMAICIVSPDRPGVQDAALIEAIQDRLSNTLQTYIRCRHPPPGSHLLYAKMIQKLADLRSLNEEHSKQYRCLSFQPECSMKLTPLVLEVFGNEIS
#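 Measured by FP: displacement of SRC2-3 coactivator peptide from VDR by library compounds, following a two-hour ambient incubation.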
# * marks the source's active call; other numbers are inactive results; ? = inconclusive; & = joins results of further samples; ! = not active in a repeat; [ ] = remark or other dose. % is set by controls: 0 for no effect and ±100 for the full control effect; potency is the fitted concentration of half-maximal effect. This is a subset; rates above refer to the full screens.
SMILES,VDR inh
Cc1cc[n+](CC2OCc3ccccc3CO2)cc1,0%
O=C(CSc1nnc(COc2ccccc2)n1Cc1ccco1)Nc1ccc2c(c1)OCCO2,11%
Cc1ccc(S(=O)(=O)CC(=O)Nc2ccc(S(=O)(=O)Nc3ccccn3)cc2)cc1,-7%
N#Cc1c(NC(=O)CN2CCCCC2)sc2c1CCC2,-8%
CN(C(=O)CSc1nnc(Nc2ccccc2)s1)c1c(N)n(Cc2ccccc2)c(=O)[nH]c1=O,-4%
O=C(NCc1ccccc1C(F)(F)F)c1cccc2c1C(=O)c1ccc(N3CCCCC3)cc1S2(=O)=O,-17%
COC(=O)c1ccccc1NC(=O)C1CC(=O)N(c2ccc(C)c(C)c2)C1 (configuration not stated),1%
CCOC(=O)C1CCCN(C(=O)Cn2nc(CC)n3c(cc4sccc43)c2=O)C1 (configuration not stated),-3%
Cn1c(SCC(=O)C(C)(C)C)nnc1-c1ccncc1,8%
CCOC(=O)c1c(C)[nH]c(C)c1S(=O)(=O)N1CCC(C(=O)N2CCN(c3ccc(Cl)cc3)CC2)CC1,-5%
Cc1ccc(-n2c(C)cc(/C=N/NC(N)=S)c2C)cc1,-18%
COc1cccc(CN2CCN(Cc3cccc(Oc4ccccc4)c3)CC2)c1OC,11%
Cc1ccc(OCc2nc(-c3cccs3)no2)c([N+](=O)[O-])c1,4%
Cc1cccc(C)c1NC(=O)c1ccc([N+](=O)[O-])s1,-4%
CCOC(=O)COc1ccc(S(=O)(=O)N2CCN(C(=O)OCC)CC2)cc1,-13%
Cc1ccc2c(c1)N(CC(=O)N1CCN(c3ccccc3)CC1)C(=O)C(C)O2 (configuration not stated),-9%
CCOc1ccc2[nH]c(=O)c(CN(Cc3nnnn3Cc3ccco3)C3CCCCC3)cc2c1,-6%
COc1cccc(OC(C)c2ccnc3nc(/N=C/N(C)C)nn23)c1 (configuration not stated),34%[activator]
c1ccc(CCn2nnnc2CN2CCCc3ccccc32)cc1,-15%
CCOc1ccccc1Nc1cc(-c2ccccc2)nc(C)n1,10%
O=[N+]([O-])c1cccc(-c2nnc(-c3ccccc3F)o2)c1,-7%
CC(C)c1cc(C(=O)N/N=C/c2ccoc2)cs1,-15%
CCOc1cc(S(=O)(=O)NCc2cccs2)ccc1Cl,2%
CC(=O)c1cccc(NC(=O)c2ccc(C)c(S(=O)(=O)N3CCOCC3)c2)c1,-7%
O=[N+]([O-])c1cccc(-c2ccc(/C=N/NC(=S)Nc3ccccc3)o2)c1,2%
O=C1CCc2cc(S(=O)(=O)Nc3cccc(F)c3)cc3c2N1CC3,1%
O=C(COC(=O)c1ccccn1)Nc1cccc(Cl)c1Cl,-1%
Cc1ccc(S(=O)(=O)N2CCN(CC(=O)N/N=C\c3ccc(O)c(O)c3)CC2)cc1,0%
N#CC1=C(N)N(c2ccc(Cl)cc2)C2=C(C(=O)CCC2)C1c1cc(CN2CCOCC2)cs1 (configuration not stated),-15%
COc1cc(C(=O)OCC(=O)NCC2CCCCC2)ccc1OCC(C)C,-3%
O=C(CCN1C(=O)/C(=C/c2ccc(F)cc2)SC1=S)NC1C=CS(=O)(=O)C1 (configuration not stated),-19%
CC(C)CN(CCOc1cccc(N2C(=O)C3=C(CCCC3)C2=O)c1)CC(C)C,-7%
CCOC(=O)c1ccc(Nc2cc(C)nc(N3CCOCC3)n2)cc1,11%
CCCCC(=O)NC(=S)NNS(=O)(=O)c1ccccc1,?
CS(=O)(=O)CCC(C(=O)Nc1cccc(C(F)(F)F)c1)N1Cc2ccccc2C1=O (configuration not stated),-10%
COc1ccc(-c2nn(C)c(=O)c3ccccc23)cc1NC(=O)Cn1nc(C)c2ccccc2c1=O,7%
O=S(=O)(Cc1cc(Cl)nc(-c2cccnc2)n1)c1ccccc1,7%
Cc1ccccc1-c1nc(NC2CCNCC2)c2ccccc2n1,2%
COc1ccc(/C=N/Nc2nc(C)cc(-c3ccccc3)n2)cc1OC,1%
O=C(COC(=O)CCNS(=O)(=O)c1ccc2c(c1)OCCO2)NC1CCCc2ccccc21 (configuration not stated),6%
CC(=O)N1CCSc2ccc(S(=O)(=O)NCCc3cccc(C)c3)cc21,-8%
CNC(=O)CSc1nnc(NC(=O)C2CC(=O)N(c3ccccc3OC)C2)s1 (configuration not stated),-8%
CCN(CC)CC#CCC(O)(c1ccccc1)c1ccccc1,-16%
CN(C1CCCCC1)S(=O)(=O)c1ccc(NC(=O)c2ccc(Br)o2)cc1,14%
NC(=O)Cc1cn(-c2ncc(C(F)(F)F)cc2Cl)c2ccccc12,-12%
Cc1ccc(NC(=O)Nc2cccs2)nc1,-6%
COc1cc(C2NC(=O)C(C#N)=C(S)N2c2ccc(C)cc2)ccc1OC(C)C (configuration not stated),28µM*
Cc1ccc(CSCC(=O)NCc2ccc(F)cc2)cc1,1%&5%
CCCCOC(=O)Oc1ccc2c(=O)c(Oc3cc(C)cc(C)c3)coc2c1,3%
Nc1nc(SCC(=O)Nc2c(Br)cc([N+](=O)[O-])cc2Br)n[nH]1,5%
COc1ccc(/C=N/Nc2nnc(Cc3ccc(OC)c(OC)c3)c(=O)[nH]2)cc1OC,0%
COc1cc(Cn2nnc3ccccc32)ccc1O,58%[activator]
Cc1ccc(Cl)cc1N1CCN(C(=O)CNC(=O)c2ccc(Br)o2)CC1,-13%
C/C(=N\Nc1ccc2nncn2n1)c1ccco1,15%
Nc1nc(NC(=O)c2ccco2)nn1-c1ccccc1,10%
CCOC(=O)Nc1ccc2c(c1)N(C(=O)CCN1CCOCC1)c1ccccc1S2=O (configuration not stated),?
COc1cccc(CN(C)CC(=O)Nc2cc(S(=O)(=O)N3CCCC3)ccc2Cl)c1OC,-4%
COC(=O)C1CCN(C(=O)CSc2nnc(-c3ccccc3)o2)CC1,-12%
O=C(CSc1nccn1-c1ccc(Cl)cc1)N1CCCc2ccccc21,1%
Cc1ccc(S(=O)(=O)N(C)c2ccc(OCC(=O)Nc3nnc(C4CC4)s3)cc2)cc1,-2%

# Remaining list, next part:
SMILES,VDR inh
CN(C)CCn1c(SCc2ccccc2C#N)nc2c(sc3ccccc32)c1=O,-10%
Cc1ccc(NC(=O)CNC(=O)CC23CC4CC(CC(C4)C2)C3)c(O)c1,-22%
O=C(N/N=C/c1ccccn1)c1ccc([N+](=O)[O-])cc1Cl,7%
O=C1CCC(/C=C/c2ccccc2)=NN1,-11%
Fc1ccc(N2CCN(c3nc4ccccc4c4nc(-c5ccccc5)nn34)CC2)cc1,-2%
S=C(NCc1ccc(Cl)cc1)Nc1ccncc1,-14%
CCN(CC(=O)c1c(N)n(C)c(=O)n(C)c1=O)c1cccc2ccccc12,-14%
CCn1c(C)nnc1SCC(=O)NC1CCCCCC1,15%
CCOc1ccc(N(CC(=O)Nc2cccnc2)S(=O)(=O)c2ccc(C)cc2)cc1,-16%
O=C(NCCc1ccccn1)c1cc(-c2ccc(Cl)c(Cl)c2Cl)nc2ccccc12,-12%
N#Cc1c(N)nc(Sc2ccc(Cl)cc2)c(C#N)c1-c1ccccc1Cl,-9%
COCCN=c1scc(-c2cccs2)n1/N=C(\C)c1ccco1,-14%
CN1CCN(c2ccc(NC(=O)c3cc(Cl)c4c(c3)OCCO4)cc2)CC1,-11%
CC(C)OC(=O)c1ccc(NC(=O)c2cncc(Br)c2)cc1,2%
CCN(c1ccccc1)S(=O)(=O)c1ccc(OCC(F)(F)F)c(NC(=O)c2ccc(=O)[nH]c2)c1,5%
O=C(CN1C(=O)COc2ccccc21)N1CCCc2ccccc21,-12%
Cc1ccc(S(C)(=O)=O)cc1S(=O)(=O)Nc1cccc(Cl)c1,-10%
CCOP(=O)(OCC)C(Nc1ccc(C)cc1)c1ccco1 (configuration not stated),-13%
CN(CCC1CCOCC1)C(=O)CC1C(=O)NCCN1CC1CCCCC1 (configuration not stated),8%
CCOC(=O)C1CN(S(=O)(=O)c2ccccc2)CCN1S(=O)(=O)c1ccccc1 (configuration not stated),-9%
O=C(c1ccco1)N1CCN(C(=O)c2cc(=O)[nH]c3ccccc23)CC1,-24%
COc1ccc(C2Nc3ccccc3C(=O)N2C2CCCCC2)cc1 (configuration not stated),-10%
Cc1cc(C)n2nc(CC(=O)NNC(=O)COc3cccc(C)c3C)nc2n1,1%
Cc1ccc(-c2nc3nc(C)cc(N4CCN(c5cccc(C)c5)C(C)C4)n3n2)cc1 (configuration not stated),-13%
CCOc1ccc(-c2cc(C(=O)Nc3ccc(NC(C)=O)cc3)no2)cc1,1%
Nc1ccc(O)c(C(=O)O)c1,45µM*!
CC(Oc1ccc(Cl)cc1Cl)C(=O)N/N=C1\CCCc2ccccc21 (configuration not stated),-14%
CC1CCN(C(=S)SCc2nc(N)nc(Nc3ccccc3)n2)CC1,-20%
CCCCCCCCn1c(=O)c(C(=O)OC)c(N)c2ccccc21,15%
O=C(c1cc2ncc(Br)cn2n1)N1CCN(C(=O)c2ccco2)CC1,6%
O=C(NNC(=S)NC(=O)c1ccccc1[N+](=O)[O-])c1ccccc1O,6%
Cn1nc(-c2ccccc2)cc1NC(=O)C1CCCCC1,-10%
CC(=O)Nc1ccc(NC(=O)C(C)OC(=O)CN(C)S(=O)(=O)c2ccc(Cl)cc2)cc1 (configuration not stated),10%
O=C(NCCc1c[nH]c2ccccc12)c1ccc(-n2cnnn2)cc1,8%
Cc1c(Br)c([N+](=O)[O-])nn1CCCC(=O)Nc1sc2c(c1C#N)CCC2,?
Fc1ccc(N2CCN(Cc3cccn3-c3nnc(N4CCN(C5CCCCC5)CC4)s3)CC2)cc1,-2%
COC(=O)Nc1sc2nc(C)cc(C)c2c1-n1cccc1,12%
COc1cc2sc(C)nc2c2ccccc12,6%
Cc1ccc(CN2CCN(/N=C/c3ccco3)CC2)c(C)c1,14%
COC(=O)C1=C(C)N=C2SC(C)C(=O)N2C1c1cccs1 (configuration not stated),-3%
Cc1cccc(CCNS(=O)(=O)c2cc3c(cc2C)NC(=O)CO3)c1,-8%
Cc1cc(SCC(=O)c2cc(C)n(C)c2C)nc2ccccc12,-7%
CCNc1ncc2nc(-c3ccc(Cl)cc3)c(=O)n(Cc3ccc(F)cc3)c2n1,5%
C/C(=N/NC(=O)CNC(=O)C1COc2ccccc2O1)c1cccc(O)c1 (configuration not stated),-13%
OCCC1CN(Cc2ccccc2-c2ccco2)CCN1Cc1ccsc1 (configuration not stated),8%
O=C(Nc1c(F)cc(F)cc1Br)C1CCCO1 (configuration not stated),4%
O=S(=O)(NCCc1ccccc1)c1ccccc1,-19%
c1c(C2CCCCC2)n[nH]c1CN1CCCCC1,4%
O=C(CN(c1cccc([N+](=O)[O-])c1)S(=O)(=O)c1ccccc1)N1CCCCC1,-9%
CCC(=O)N1c2ccccc2NC2=C(C(=O)CCC2)C1c1cccnc1 (configuration not stated),20%
COCCNC(=O)CCc1c(C)nc2nc(-c3cc(OC)cc(OC)c3)nn2c1C,21%
CSc1nc(NC(C)(C)C)nc(N2CCOCC2)n1,3%
COc1ccc(CCNC(=O)COc2ccc(S(=O)(=O)N3CCOCC3)cc2C)cc1,-16%
Cc1cc(C(=O)CS(=O)(=O)c2ccccc2)cc(C)c1O,3%
CC(=O)c1cccc(NC(=O)COC(=O)COc2ccccc2C)c1,9%
CC(C)(Cc1ccc(O)cc1)NC(=O)CC(=O)N/N=C/c1ccc(Cl)cc1,-25%
CCc1ccc(C2/C=C\CNC(c3ccccc3)C(=O)N2Cc2ccc(C)cc2)cc1 (configuration not stated),-27%
CCN(CC)c1ccc(-c2sc(Nc3ccccc3)n[n+]2-c2ccc(F)cc2)cc1,-16%
Cc1nccn1S(=O)(=O)c1ccc(Br)cc1Br,-3%
CC1=C(C(=O)OCC2CCCO2)C(c2ccc(C)o2)C2=C(CC(c3ccc(F)cc3)CC2=O)N1 (configuration not stated),-25%
COc1ccc(-c2[nH]nc3c2C(c2ccncc2)C(C#N)=C(N)O3)cc1 (configuration not stated),-12%
Oc1ccc2ccccc2c1C1Nc2cccc3cccc(c23)N1,-11%
CCc1cccc(-n2c(C)nc3c(cnn3-c3ccc(C)c(C)c3)c2=O)c1,8%

# 17 structures out of the list, arranged by molecular weight, largest number first.
SMILES,VDR inh
CC1=C(C(=O)OCC2CCCO2)C(c2ccc(C)o2)C2=C(CC(c3ccc(F)cc3)CC2=O)N1 (configuration not stated),-25%
CCN(CC)c1ccc(-c2sc(Nc3ccccc3)n[n+]2-c2ccc(F)cc2)cc1,-16%
COCCNC(=O)CCc1c(C)nc2nc(-c3cc(OC)cc(OC)c3)nn2c1C,21%
CCc1ccc(C2/C=C\CNC(c3ccccc3)C(=O)N2Cc2ccc(C)cc2)cc1 (configuration not stated),-27%
CCNc1ncc2nc(-c3ccc(Cl)cc3)c(=O)n(Cc3ccc(F)cc3)c2n1,5%
O=C(CN(c1cccc([N+](=O)[O-])c1)S(=O)(=O)c1ccccc1)N1CCCCC1,-9%
CC(C)(Cc1ccc(O)cc1)NC(=O)CC(=O)N/N=C/c1ccc(Cl)cc1,-25%
OCCC1CN(Cc2ccccc2-c2ccco2)CCN1Cc1ccsc1 (configuration not stated),8%
Cc1nccn1S(=O)(=O)c1ccc(Br)cc1Br,-3%
C/C(=N/NC(=O)CNC(=O)C1COc2ccccc2O1)c1cccc(O)c1 (configuration not stated),-13%
CCC(=O)N1c2ccccc2NC2=C(C(=O)CCC2)C1c1cccnc1 (configuration not stated),20%
COc1ccc(-c2[nH]nc3c2C(c2ccncc2)C(C#N)=C(N)O3)cc1 (configuration not stated),-12%
Cc1cc(SCC(=O)c2cc(C)n(C)c2C)nc2ccccc12,-7%
O=C(Nc1c(F)cc(F)cc1Br)C1CCCO1 (configuration not stated),4%
CSc1nc(NC(C)(C)C)nc(N2CCOCC2)n1,3%
O=S(=O)(NCCc1ccccc1)c1ccccc1,-19%
c1c(C2CCCCC2)n[nH]c1CN1CCCCC1,4%
